# Screening data as filed in PubChem BioAssay.
# Vaccinia mCherry = inhibitors of vaccinia virus infection (mCherry reporter signal); Vaccinia virus mCherry reporter infection, fluorescence; about a quarter of the inactives have no number; Potency, µM (top dose mostly 36.5 µM), for inactives: at the highest dose activity change, negative = inhibition, actives largely listed as inhibitors; 310,000 tested, 0.63% active; AID 720579; active = well fitted inhibition curve with a large enough effect; inconclusive = small, poorly fitted or top-dose-only effect; inactive = no such curve, though single readings can be large or run the other way; tested in A549 cells; further: nearly all actives have a fitted effect of over 35% in size; inactives centre near -10
# VACV Venus inh = vaccinia inhibition (Venus reporter) | Vaccinia virus Venus reporter expression, fluorescence | Potency, µM (series often up to 36.5 µM), without a hit: at the top dose activity change, negative = inhibition, actives largely listed as inhibitors | 330,000 tested, 0.46% active | AID 720580; active means well fitted inhibition curve with a large enough effect; inconclusive means small, poorly fitted or top-dose-only effect; inactive means no such curve, though single readings can be large or run the other way; tested in A549 cells; further: nearly all actives have a fitted effect of over 30% in size; inactives centre near -10
# * = called active by the depositor; i = inactive; ? = inconclusive; / = no result given; [ ] = remark or other dose. On the % scale 0 is the no-effect control and ±100 the full control effect; potency means the concentration at half of the fitted maximal effect.
SMILES,Vaccinia mCherry,VACV Venus inh
CC(NC(=O)COC(=O)/C=C/c1cccc(C(F)(F)F)c1)c1ccccc1 (centres undefined),-26%,-11%
COc1cccc(N2CCN(S(=O)(=O)c3cn(C)cn3)CC2)c1,-26%,-15%
COc1ccccc1CNC(=O)C1CC(=O)N(C2CCCC2)C1 (centres undefined),-4%,-14%
CCc1cccc(C)c1NC(=O)c1ccccc1,i,-2%
Cc1cc(NC(=O)C2CCN(S(=O)(=O)c3c(C)noc3C)CC2)ccc1Br,-10%,-10%
Cc1ccc(CN2C(=O)CCC2C(=O)NCCN(CC(C)C)CC(C)C)cc1 (centres undefined),/,-11%
Cc1nc(-c2ccccc2)sc1C(=O)CSc1ccc(Br)cc1,/,-3%
O=C(Nc1cccnc1)C1OCCc2ccccc21 (centres undefined),-21%,-5%
COC1=C(c2ccccc2)C(=O)c2ccccc2C1=O,-24%,-8%
COC(=O)C1=C(C)N(Cc2ccccc2)C(=NCCCCO)N[C@H]1c1cccc(C(F)(F)F)c1,-13%,-21%
CCN(CC)Cc1c(O)ccc2c1O/C(=C\C=C\c1ccccc1)C2=O,2%,10%
Cc1cc(OCC(=O)Nc2ccc(C(=O)OC3CCCCC3)cc2)cc(C)c1Cl,8%,10%
O=C(OCc1ccccc1)N1CCOCCN(C(=O)OCc2ccccc2)CCOCC1,-13%,-15%
O=S(=O)(c1cccc(Cl)c1)c1nnn2c1nc(NC1CCCCCC1)c1sccc12,-21%[7.34 µM],-28%[7.34 µM]
CCc1ccc(/C=N\NC(=O)c2ccc(Br)o2)s1,-13%,-25%
Cc1ccccc1CN1c2ccccc2-c2nc(SCC(=O)NCCc3ccccc3)ncc2S1(=O)=O,-26%,-20%
CC1=C(C(=O)Nc2ccccc2)C(c2coc3ccccc3c2=O)C2=C(CCCC2=O)N1 (centres undefined),-16%,-14%
COc1cc(CNc2nnnn2C)ccc1OCc1ccc(F)cc1Cl,-20%,-5%
O=C(Cn1cc(C(F)(F)F)ccc1=O)NCc1ccc(F)cc1,11%,4%
O=C(Nc1cc(S(=O)(=O)N2CCCCC2)ccc1Cl)c1ccccc1NS(=O)(=O)c1ccc(F)cc1,?,?
CCCCOc1cc(C)nc(NCc2ccccc2)n1,/,?
CS(=O)(=O)c1ccccc1-c1nc(-c2cc(C(F)(F)F)cc(C(F)(F)F)c2)no1,i,0%
COc1cccc(-n2c(SCC(=O)NC(C)(C)C)nnc2-c2ccoc2C)c1,-7%,-17%
CCOc1ccc(NC(=O)CN(C)C(=O)c2ccc(N3CCCCC3)c([N+](=O)[O-])c2)cc1OCC,i,-16%
CNC(=O)C[C@@H]1C(=O)N(c2ccc(Br)cc2)CC1(C)C,i,-8%
COc1ccc2c(CC(=O)N[C@@H](Cc3c[nH]c4ccccc34)C(=O)O)cc(=O)oc2c1,-6%,2%
O=C(COC(=O)c1ccc(F)cc1F)c1ccc[nH]1,-13%,-7%
COC(=O)C1=C(C(=O)OC)[C@@H]2N(Cc3ccccc3)c3ccccc3[C@@]23C[C@@H](C(=O)OC)N(C(=O)CC(C)C)C3=N1,i,-8%
COc1cc(NC(=O)NCC2CCN(Cc3ccccc3C)CC2)cc(OC)c1OC,-22%,-18%
CCC(C)[C@H](NC(=O)Nc1ccc(S(N)(=O)=O)cc1)C(=O)O (some centres undefined),i,-5%
O=C(COc1ccc(=O)n(-c2ccccc2)n1)Nc1ccccc1,i,-9%
O=C(CCN1C(=O)c2ccccc2S1(=O)=O)NCc1ccco1,-6%,0%
O=C(Cc1cccc(C(F)(F)F)c1)OCC(=O)N1CCN(S(=O)(=O)c2ccc(Cl)cc2)CC1,-18%,-9%
CC(=O)c1ccc(OCC(=O)OCC(=O)c2ccc(S(=O)(=O)N3CCCCC3)cc2)cc1,-4%,-14%
Cc1cccc(C)c1N=C1NN=C(c2ccccc2F)CS1,-3%,-15%
CCCn1c(=O)c(C(=O)Nc2ccccc2N)c(O)c2ccccc21,-12%,-7%
Cc1ccccc1CC(=O)Nc1ccc(S(=O)(=O)N2CCN(C)CC2)cc1,-15%,-8%
COc1ccccc1C(=O)NCC(=O)NC(C)CCc1ccccc1 (centres undefined),i,-11%
O=C(CSc1nnc(-c2ccccc2)c(-c2ccccc2)n1)NC1CCS(=O)(=O)C1 (centres undefined),-11%,-1%
Cc1nnc(NN2CCOCC2)[nH]c1=O,0%,-10%

# Sorted by SMILES length (high to low): some entries from above.
SMILES,Vaccinia mCherry,VACV Venus inh
CC(=O)c1ccc(OCC(=O)OCC(=O)c2ccc(S(=O)(=O)N3CCCCC3)cc2)cc1,-4%,-14%
O=C(CSc1nnc(-c2ccccc2)c(-c2ccccc2)n1)NC1CCS(=O)(=O)C1 (centres undefined),-11%,-1%
O=C(CCN1C(=O)c2ccccc2S1(=O)=O)NCc1ccco1,-6%,0%

# Full records, looked up by structure.
# `COc1ccccc1C(=O)NCC(=O)NC(C)CCc1ccccc1` (centres undefined) reads Vaccinia mCherry: i; VACV Venus inh: -11%
# `Cc1nnc(NN2CCOCC2)[nH]c1=O` reads Vaccinia mCherry: 0%; VACV Venus inh: -10%
# `O=C(COc1ccc(=O)n(-c2ccccc2)n1)Nc1ccccc1` reads Vaccinia mCherry: i; VACV Venus inh: -9%

# The list continues.
SMILES,Vaccinia mCherry,VACV Venus inh
Cc1cc2ccccc2c(=O)n1CC(=O)N(C)c1ccc(F)cc1,-17%,-5%
CC(C)NC(=O)C1Cc2c(-c3ccc(Cl)cc3)ccnc2O1 (centres undefined),i,-4%
O=C(CN1C(=O)c2ccccc2S1(=O)=O)c1ccc(F)c(F)c1,i,0%
CCOC(=O)c1cccc(NC(=O)C(C)n2c(C)c3cnn(-c4ccccc4)c(=O)c3c2C)c1 (centres undefined),-13%,-9%
Cc1cccc(Cn2cnc3c(NS(C)(=O)=O)c(C)c(C)cc32)c1,-22%,-26%
COc1cc2c(=O)c(C(=O)c3ccc(C)c(C)c3)cn(Cc3ccccc3)c2cc1OC,-2%,-21%
CC(C)C[C@H]1CNC(=S)N1C[C@H]1CCCN1C[C@H](Cc1ccccc1)N1C[C@H](Cc2ccc(O)cc2)N(CCc2ccccc2)C1=S,1%,-17%
COc1ccc(-n2nc3c(N4CCC(C(=O)NCc5ccccc5)CC4)nnc(C)c3c2C)cc1,-5%,-15%
Cc1ccc(C)c(NC(=O)COC(=O)c2ccc[n+]([O-])c2)c1,-7%,3%
CCCCCSc1nc(O)cc(=O)[nH]1,/,8%
Cc1ccccc1NC(=O)c1cc(S(=O)(=O)N2CCOCC2)cn1C,i,-8%
CC(C)(C)OC(=O)N1CCC(C(=O)Nc2cccc(C(=O)N3CCOCC3)c2)CC1,i,1%
N#Cc1nc(-c2cccs2)oc1NCc1ccccc1Cl,-4%,-24%
Cc1ccc(NC(=O)CN2CCCC2)cc1Br,i,-10%
COc1ccc(C(O)Cn2ccsc2=NC(C)=O)cc1 (centres undefined),?,?
c1ccc2sc(Sc3ncnc4sccc34)nc2c1,-25%,-11%
COc1ccc(N(CC(=O)Nc2cc(C)ccc2C)S(=O)(=O)c2ccccc2[N+](=O)[O-])c(OC)c1,-9%,2%
COc1ccc(CCNC(=O)c2cc(CC(C)C)on2)cc1OC,?,?
CC(C(=O)N1CCOCC1)c1ccccc1 (centres undefined),-21%,-10%
COc1ccc(-c2csc3nc(C)nc(N4CCC(C)CC4)c23)cc1OC,?,?
Cc1cc(C)c(NC(=O)C2c3ccccc3Oc3ccccc32)c(C)c1,i,-14%
CCC1(C2C=COC=C2)NC(=O)NC1=O (centres undefined),i,-4%
Cn1nc(C(=O)N2CCN(c3ccc(Cl)cc3)CC2)c2c1-c1ccccc1SC2,3%,-2%
COCCCNC(=S)Nc1c(C)cc(C)cc1C,i[7.34 µM],5%[7.34 µM]
COc1ccc(S(=O)(=O)N2CCCCCC2)cc1C(=O)N(CC(C)C)C1CCS(=O)(=O)C1 (centres undefined),-6%,-5%
CC(Sc1cnc2ccccc2n1)C(=O)O (centres undefined),-14%,-13%
O=C(CN1CCCc2ccccc21)NCCc1ccc(F)cc1,-1%,2%
Cc1ccc(S(=O)(=O)NCC(=O)N(CC(=O)NCC2CCCO2)Cc2ccco2)cc1 (centres undefined),i,3%
Cc1cc(/C=C/c2nc3ccccc3s2)ccc1N(C)C,18%,104%[activator]
Cc1ccc(N(C(=O)CNC(=O)c2ccco2)C(C(=O)NC2CCCCC2)c2ccncc2)cc1F (centres undefined),-6%,-9%

# 4 neighbouring records from above:
SMILES,Vaccinia mCherry,VACV Venus inh
Cc1cc(C)c(NC(=O)C2c3ccccc3Oc3ccccc32)c(C)c1,i,-14%
CCC1(C2C=COC=C2)NC(=O)NC1=O (centres undefined),i,-4%
Cn1nc(C(=O)N2CCN(c3ccc(Cl)cc3)CC2)c2c1-c1ccccc1SC2,3%,-2%
COCCCNC(=S)Nc1c(C)cc(C)cc1C,i[7.34 µM],5%[7.34 µM]

# Other results follow.
SMILES,Vaccinia mCherry,VACV Venus inh
CCOc1ccc(-c2nnc(SCC(=O)NCCc3ccccc3)nc2-c2ccc(OCC)c(OC)c2)cc1OC,-7%,-1%
CSc1nnc(-c2ccc([N+](=O)[O-])cc2)o1,-10%,-13%
COc1ccccc1N=c1scc(-c2ccc3c(c2)NC(=O)CO3)n1CC1CCCO1 (centres undefined),/,-29%
COc1ccc(NC(=O)CCc2ccccc2)cc1NC(=O)c1ccco1,-14%,-6%
COc1ccc(NC(=O)Nc2cc(C(=O)O)ccc2N2CC3CC(C2)c2cccc(=O)n2C3)c(OC)c1 (centres undefined),-14%,-2%
Cc1cccc(NC(=O)C(=O)N/N=C/c2ccncc2)c1,-2%,-15%
Cc1nn(C)c(C)c1CN(C)S(=O)(=O)c1ccc2ccccc2c1,?,?
CCOc1nc(Nc2ccc([N+](=O)[O-])cc2)nc(NC(C)(C)C)n1,-13%,-1%
Cc1cc(C(=O)N/N=C2\CC(=O)c3ccccc32)c(C)n1-c1ccccc1,?,-7%
NC(=O)C1=C[C@H](c2coc3ccccc3c2=O)C[C@H](OCCCCO)O1,i,-8%
COc1ccccc1N1CCN(C(=O)c2cnn(-c3ccc(F)cc3F)c2C2CCNCC2)CC1,-7%,-10%
COC(=O)C1CCN(C(=O)CSc2ccccc2)CC1,-13%,-26%
O=C1c2ccccc2C(=O)N1Nc1ccccc1,-9%,17%
C=CCn1c(SC(C)C#N)nc2ccccc2c1=O (centres undefined),39%[activator],-5%
O=C(N/N=C/c1ccc(Sc2ccccn2)o1)c1cc2ccccc2cc1O,-17%,-18%
CCOC(=O)C(=O)N(C)c1c(CC)nc2c(OCc3ccc(OC(F)F)cc3)cccn12,16%,-4%
CCOC(=O)c1c(NC(=O)c2cc(=O)c3c(C)cc(C)cc3o2)sc(C(C)=O)c1C,-1%,1%
CCCC(=O)N1CCC1(C)C(=O)NS(=O)(=O)c1ccc(F)cc1F (centres undefined),28%,-2%

# Some of the entries so far, with two lines to a compound:
# Order of values – Vaccinia mCherry, VACV Venus inh
- CCCC(=O)N1CCC1(C)C(=O)NS(=O)(=O)c1ccc(F)cc1F (centres undefined)
    28%, -2%
- CCOC(=O)c1c(NC(=O)c2cc(=O)c3c(C)cc(C)cc3o2)sc(C(C)=O)c1C
    -1%, 1%
- COc1ccccc1N1CCN(C(=O)c2cnn(-c3ccc(F)cc3F)c2C2CCNCC2)CC1
    -7%, -10%
- O=C(N/N=C/c1ccc(Sc2ccccn2)o1)c1cc2ccccc2cc1O
    -17%, -18%
- O=C1c2ccccc2C(=O)N1Nc1ccccc1
    -9%, 17%
